Screening results from PubChem.
CBX7 inh – CBX7 chromodomain binding inhibitors, primary screen, biochemical, AlphaScreen | Chromobox protein homolog 7 (Homo sapiens), O95931 | normalised signal (fraction of DMSO) (no concentration beside the values) | hit rate 1.1% among 66,000 | AID 1224903, 2016 | AlphaScreen His6-CBX7 / biotin-H3K27me3 peptide binding; stronger effect = lower value; in the data active means normalised signal below about 0.5;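 further: 100 nL library stock added to about 20 µL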
Target sequence (O95931 whole entry, looked up): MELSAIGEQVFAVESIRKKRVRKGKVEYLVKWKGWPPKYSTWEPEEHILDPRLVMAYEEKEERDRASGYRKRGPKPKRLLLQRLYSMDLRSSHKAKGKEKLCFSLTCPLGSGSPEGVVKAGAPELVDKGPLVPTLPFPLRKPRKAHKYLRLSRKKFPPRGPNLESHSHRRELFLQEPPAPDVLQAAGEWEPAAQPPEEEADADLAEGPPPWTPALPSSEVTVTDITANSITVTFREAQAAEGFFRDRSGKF
CBX7 inh z-score – also measured in CBX7 inh; calls as there; z-score; measured here: z-score of CBX7 signal; some inactives read as strong as hits; reference of the scale not given here;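 same signal on another scale; lower means less binding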
The depositor's hits bear a star; & = joins results of further samples. Not all compounds are listed. The share of hits here may be higher or lower than overall.

SMILES	CBX7 inh	CBX7 inh z-score
Cc1cccc(Cn2cc(S(=O)(=O)c3ccccc3)c(=O)c3cc(F)ccc32)c1	0.88	-2.3
Cc1ccc(Cn2c(C(=O)Nc3cccnc3)cc3sccc32)cc1	0.96	-0.98
O=C(NC1CCCCCC1)C1CCC(CNc2c(NC3CCCCC3)c(=O)c2=O)CC1 (stereo not given)	0.92	-0.96
COc1ccc(NC(=O)N2CCC(c3ccccc3)C2)c(OC)c1 (stereo not given)	0.76	-2.6
COc1ccc(NC(=O)CCc2c(C)nc3c(-c4ccc(F)cc4)c(C)nn3c2C)cc1OC	1	0.75
Cc1nc2cc(-c3ccc(Cl)cc3)nn2c(C)c1CCC(=O)N1CCN(Cc2ccccc2)CC1	1	0.062
Clc1cccc(Oc2ncnc3c2oc2ccccc23)c1	1	0.035
Cc1ccc(NC(=O)c2c(C)nc(Nc3nc4ccccc4o3)nc2C)cc1	1.1	0.12
CCc1nnc(NS(=O)(=O)c2ccc(NC(=O)Nc3cccc(Cl)c3)cc2)s1	0.73	-1.2
Cc1ccccc1-c1nc(C(=O)N2CCCCC2)c(C)o1	1	0.00019
Cc1ccc(-c2nc(C#N)c(N3CCCC3)o2)cc1	0.92	-0.09
Cc1cc(C)cc(NC(=O)C2=CCN(S(=O)(=O)c3ccc(F)cc3)CC2)c1	0.95	-0.88
COc1ccc(NC(=O)NCCN2C(=O)C3C4C=CC(C4)C3C2=O)cc1 (stereo not given)	0.99	-0.35
O=C(NC1CCCCC1)c1ccc(CNc2c(NC3CCCC3)c(=O)c2=O)cc1	0.91	-0.21
Cc1cccc(OCC(=O)Nc2ccc3nc(N4CCC(C)CC4)cc(C)c3c2)c1	0.9	-1.1
Cc1oc(-c2cccs2)nc1CSCC(=O)NCCc1ccccc1	0.88	-2.3
CCc1ccc(NS(=O)(=O)c2ccc3c(c2)CCN3C(=O)CCC(=O)O)cc1	1.1	1.2
CCCCCC1CCC(c2ccc(-c3ccc(CC)cn3)cc2)CC1 (stereo not given)	1	0.49
Cc1cc(N2CCOCC2)nc2ccc(NC(=O)CCC3CCCC3)cc12	1.1	2.7
Cc1ccc(CCNC(=O)Cn2ncc3c2-c2ccccc2OC3)cc1	1	0.28
CCC1Oc2ccc(C)cc2N(CC(=O)NCCC(C)C)C1=O (stereo not given)	0.94	-1.2
O=C(Cn1nc(-c2ccc(Cl)cc2)ccc1=O)NCCCN1CCCCCC1	1	1.6
CSCC[C@@H](C(=O)Nc1ccc(C)c(F)c1)N1Cc2ccccc2C1=O	0.53	-1.3
Cn1c(-c2nonc2NC(=O)CSc2nc3ccccc3o2)nc2ccccc21	1	0.15
O=C(Nc1nccs1)c1cc2c(s1)-c1ccccc1OC2	1.1	3.1
COc1ccc(-c2cc(C(=O)N(C)Cc3ccccc3)no2)cc1	1.1	0.36
COc1ccc2nc(N3CCC(C(=O)NCCN(C)Cc4ccccc4)CC3)sc2c1	0.92	-1.3
CC1(C)CC(=O)C2=C(C1)N(c1ccccc1)C(=O)CC2c1cccnc1 (stereo not given)	1.2	1.8
Cc1c(C(=O)NCc2ccc(F)cc2)oc2ccc(S(=O)(=O)N3CCC(C)CC3)cc12	1	0.36
Cc1c(C(N)=O)nnn1-c1nonc1N	0.97	-0.84
CC1CCN(S(=O)(=O)c2ccc3[nH]c(=O)cc(C(=O)NC(C)CCc4ccccc4)c3c2)CC1 (stereo not given)	0.9	-1.9
Clc1ccc(OCc2nc3ccccc3n2CCC2CCCCC2)cc1	1.7	34
COc1ccccc1C(=O)Nc1nc2ccccc2s1	1	0.025
COc1cccc(-c2nc(CS(=O)(=O)CC(=O)N3CCCC3)c(C)o2)c1	1	0.63
CCOc1ccc(CCNC(=O)c2nc(-c3ccc(C)cc3)oc2C)cc1	0.91	-0.95
CCOc1cc2c(cc1OCC)C(c1ccc(OC)cc1F)NCC2 (stereo not given)	0.9	-0.35

Complete entries from above.
CCC1Oc2ccc(C)cc2N(CC(=O)NCCC(C)C)C1=O (stereo not given) as listed: CBX7 inh: 0.94; CBX7 inh z-score: -1.2
CCc1ccc(NS(=O)(=O)c2ccc3c(c2)CCN3C(=O)CCC(=O)O)cc1 as listed: CBX7 inh: 1.1; CBX7 inh z-score: 1.2
CCOc1ccc(CCNC(=O)c2nc(-c3ccc(C)cc3)oc2C)cc1 as listed: CBX7 inh: 0.91; CBX7 inh z-score: -0.95

More entries follow.
SMILES	CBX7 inh	CBX7 inh z-score
CCOC(=O)c1cnc2cc(Cl)c(OC)cc2c1Nc1ccc(CC)cc1	0.99	-0.31
Cc1ccc2c(c1)C(c1ccccc1)N(C(=O)c1cccc(F)c1)CC(=O)N2 (stereo not given)	0.93	-0.098
COc1cccc(C(=O)N(Cc2cccs2)C2CCS(=O)(=O)C2)c1 (stereo not given)	0.93	-0.84
Cc1cc(N2CCCCC2)nc2ccc(NC(=O)C(C)Oc3ccc(Cl)cc3Cl)cc12 (stereo not given)	1.6	15
CCN(CC)C(=O)c1ccc2c(c1)N(Cc1cc(C)ccc1C)C(=O)c1ccccc1S2(=O)=O	1.1	1.9
CCc1ccn2c(C)c(-c3ccc(OC)c(OC)c3)cc2c1	1.1	1.5
O=C(NC1CCCC1)c1ccc2c(c1)N(Cc1cccc(Cl)c1)C(=O)c1ccccc1S2	1	-0.12
CN1CCN(c2oc(COc3ccc(F)cc3)nc2C#N)CC1	1	0.22
CCN(CC)CCCNC(=O)c1cc(Nc2ccc(OC)cc2)nc2ccccc12	0.84	-1.9
Cc1cccc(CN2C(=O)c3ccccc3S(=O)(=O)c3ccc(C(=O)NCc4cccs4)cc32)c1	0.78	-2.4
CCOc1ccc(OCC)c(NC(=O)Nc2ccc3c(c2)N(C)C(=O)CS3)c1	0.79	-4.6
CCCCNC(=O)CCCNC(=O)Cn1cnc2sc(C)c(C)c2c1=O	0.95	-0.93

In the list so far, these have a thiophene ring, fused or not.
SMILES	CBX7 inh	CBX7 inh z-score
Cc1ccc(Cn2c(C(=O)Nc3cccnc3)cc3sccc32)cc1	0.96	-0.98
Cc1oc(-c2cccs2)nc1CSCC(=O)NCCc1ccccc1	0.88	-2.3
O=C(Nc1nccs1)c1cc2c(s1)-c1ccccc1OC2	1.1	3.1
COc1cccc(C(=O)N(Cc2cccs2)C2CCS(=O)(=O)C2)c1 (stereo not given)	0.93	-0.84
Cc1cccc(CN2C(=O)c3ccccc3S(=O)(=O)c3ccc(C(=O)NCc4cccs4)cc32)c1	0.78	-2.4
CCCCNC(=O)CCCNC(=O)Cn1cnc2sc(C)c(C)c2c1=O	0.95	-0.93

The results go on.
SMILES	CBX7 inh	CBX7 inh z-score
O=C(CSc1nnc(-c2ccncc2)n1-c1ccccc1)Nc1ccc(Br)cc1	1	0.039
CCNS(=O)(=O)c1ccc(NC(=O)Cn2nc(C(F)(F)F)cc2C)cc1	1.1	1.3
Cc1cc(NCCc2ccccc2)nc2cc(O)ccc12	1	0.36
COc1cc(OC)cc(-n2nc(C(=O)N3CCOCC3)c3ccccc3c2=O)c1	0.98	-0.6
Cc1cccc(-n2c(C)nc3cc(C(=O)NC4CCCC4)ccc32)c1	0.96	-0.76
O=C(NCCc1ccccc1)C1C2C=CC3(CN(Cc4ccccc4Cl)C(=O)C13)O2 (stereo not given)	1	0.23
Cc1oc(-c2ccccc2Cl)nc1CS(=O)(=O)CC(=O)N1CCc2ccccc21	1.1	1.7
CCOc1ccc(-n2c(C)nc3cc(C(=O)NCC(OCC)OCC)ccc32)cc1	0.95	-0.55
Cc1nnc2ccc(NCc3cccc(Cl)c3)nn12	1.1	2.2
Cc1cccnc1NC(=O)Nc1ccccc1Cl	1.1	0.27
Cc1[nH]c2ccc(-c3nnc(SCCC#N)o3)cc2c1C	0.96	-1.2
Cc1cccc(Cc2c(C)nc3c(C(=O)N(C)CCC#N)c[nH]n3c2=O)c1	0.67	-4.2
COc1cc2c(C(=O)NC3CCCC(C)C3C)cn(CC(C)C)c(=O)c2cc1OC (stereo not given)	1.2	2
Cc1ccc(S(=O)(=O)Nc2ccc(-c3nc4ccccc4o3)cc2)cc1	1.1	2.3
Cc1ccc(NC(=O)C(NS(=O)(=O)c2ccc3nc(C)sc3c2)C(C)C)c(C)c1 (stereo not given)	0.95	-0.85
Cc1ccc(C)c(N2CCN(CCCNC(=O)CN3C(=O)CSc4ncccc43)CC2)c1	1	0.028
CCN1CCN(c2ccc(NC(=O)CCc3c(C)nc4c(c(C)nn4-c4ccccc4)c3C)cc2)CC1	0.92	-1.7
CCOC(=O)c1c(NC(=O)CSc2nc3ccccc3o2)sc2c1CCC2	0.94	-0.98
O=C(NCc1cccnc1)c1ccc2c(c1)ncn2-c1ccc(OCc2ccccc2)cc1	0.85	-3.7
Cc1cc(-n2c(SCc3ccccc3)nnc2-c2cccnc2)ccc1Cl	0.95	-1.5
Cc1oc(-c2ccccc2F)nc1C(=O)NCc1ccc2c(c1)OCO2	1	0.37
CCCCCNC(=O)c1c[nH]c2ccc(S(=O)(=O)N(CC)c3ccccc3)cc2c1=O	1	0.2
OCCSc1nnnn1-c1ccccc1	0.86	-1.5
COc1ccc(OC)c(NC(=O)CSc2nccn2-c2cc(C)cc(C)c2)c1	0.78	-3.9

In a second layout: 2 of the compounds above
Every second line gives: CBX7 inh | CBX7 inh z-score
- Cc1oc(-c2ccccc2F)nc1C(=O)NCc1ccc2c(c1)OCO2
→ 1 | 0.37
- CCCCCNC(=O)c1c[nH]c2ccc(S(=O)(=O)N(CC)c3ccccc3)cc2c1=O
→ 1 | 0.2

Next records.
SMILES	CBX7 inh	CBX7 inh z-score
O=C(NCc1ccc(F)cc1)C1CCCN(C(=O)c2cnn(-c3ccccc3)c2-n2cccc2)C1 (stereo not given)	1	0.79
CC1CCCC(NC(=O)CN2C(=O)CC(C)(C)Sc3ccccc32)C1C (stereo not given)	1	0.073
O=C1CCCC2=C1C(c1ccccc1)N(C(=O)c1ccccc1)c1ccccc1N2 (stereo not given)	1	0.81
Cc1cccc(C)c1NC(=O)Nc1cc2sccc2n1C	0.99	-0.22
Cc1ccnc(N2C(=O)c3ccccc3C2Nc2cccc(Cl)c2C)c1 (stereo not given)	1	1.7
CCOC(=O)N1CCN(C(=O)c2ccc(CNc3c(NC4CCCC4)c(=O)c3=O)cc2)CC1	0.96	-0.087
O=S(=O)(c1ccccc1)c1nc(-c2ccc(Cl)cc2)oc1N1CCOCC1	0.97	-1.1
CCOC(=O)c1nc(Nc2ccc(C)cc2C)c2ccccc2n1	1	0.011
Cc1ccc(-c2nnc(Nc3ccc(F)cc3)c3ccccc23)cc1S(=O)(=O)N1CCN(C)CC1	1	0.0053
O=C(c1ccccc1Cl)N1CCc2c([nH]c3ccccc23)C1c1ccc(Cl)cc1 (stereo not given)	0.64	-8.9
Cc1ccc(C)c(CN2C(=O)c3ccccc3S(=O)c3ccc(C(=O)NCc4ccccc4)cc32)c1 (stereo not given)	0.99	-0.051
Cc1ccc(C(=O)NCCc2nc(-c3ccccc3)cs2)cc1	1.1	0.81
COCCCNS(=O)(=O)c1ccc2c(c1)CCN2C(=O)C1CCC1	1	0.41
Cc1ccc(-n2c(Cc3cccn3C)nnc2SCC(=O)Nc2ccc3c(c2)OCO3)cc1	0.76	-5.7
CCCOc1ccc(N2C(=O)CC(N3CCCC3)C2=O)cc1 (stereo not given)	1.2	1.7
COc1ccc(C2CC(C(F)(F)F)n3nc(C(=O)Nc4ccccn4)cc3N2)cc1 (stereo not given)	1.2	3.8
CC1(C)CC(=O)c2cnc3cc(-c4ccc(Cl)cc4)nn3c2C1	0.98	-0.19
Cc1ccc2nc(N3CCC(C(=O)NC4CCCCCCC4)CC3)[nH]c2c1	0.78	-2.6
O=C1c2[nH]nc(-c3ccccc3)c2C(c2ccccc2)N1c1ccccc1 (stereo not given)	1	0.089
COc1cccc(CN2CCN(Cc3cc(OC)cc(OC)c3)CC2)c1	0.99	-0.16
CCCCN(C)C(=O)C(CC(C)C)NS(=O)(=O)c1ccc2c(c1)CCN2C(=O)CC (stereo not given)	1	0.51
CCC(=O)Nc1ccc2nc(SC(c3ccccc3)c3ccccc3)sc2c1	1.1	1.5
Cn1nc(-c2ccc(C(=O)Nc3ccc(F)cc3)cc2)c2ccccc2c1=O	1.1	0.91
CC(C)c1ccc(NC(=O)C(c2ccccc2)N(CCO)Cc2ccccc2)cc1 (stereo not given)	0.97	-0.17
NC(=O)C1CCN(C(=O)CCCn2c(=O)[nH]c3ccccc3c2=O)CC1	1.1	0.33
O=C1CCc2cc(S(=O)(=O)NC(Cc3ccccc3)C(=O)N3CCCCC3)ccc2N1 (stereo not given)	0.98	-0.45
FC(F)(F)c1nc2ccccc2nc1N1CCN(Cc2ccccc2)CC1	1.1	4.2
CC(=O)N1CCc2cc(S(=O)(=O)NCCCN(C)C)ccc21	1.3	1
CCOC(=O)c1ccc(NC(=O)CSc2nccn2-c2ccc(Cl)cc2)cc1	1	0.11
CCCNC(=O)c1ccc2c(c1)ncn2-c1cc(OC)ccc1OC	0.93	-0.84
CN(C)C(=O)N1CCC(C(=O)NCc2ccccc2)CC1	1	1.6
COc1ccccc1-c1c(C)nn2c(N(C)Cc3ccccc3)cc(C)nc12	1.4	2.1
CCCN1CCN(C(=O)c2cnc(Nc3ccc(C)c(Cl)c3)c3ccccc23)CC1	1.1	3.1
COC(CNC(=O)c1ccc2c(c1)N(Cc1ccccc1)C(=O)c1ccccc1S2=O)OC (stereo not given)	0.98	-0.46
O=C(O)c1ccc2c(c1)C(=O)N(c1ccccn1)C2=O	0.98&1	-0.65&0.29
CCOC(=O)CSc1nnc(-c2ccccc2Cl)o1	1.1	0.5
O=C(O)CCCC(=O)N1CCc2cc(S(=O)(=O)NCc3ccccc3)ccc21	1.2	1.8
COc1ccc2[nH]c(C)c(CCNC(=O)Cn3nc(C(F)(F)F)c4c3CCCC4)c2c1	0.72	-0.28
